# Bioassay records as filed in PubChem.
# 2A Renilla: lowers the Renilla signal of an FMDV 2A StopGo reporter; Potency, µM (doses to about 57.5 µM), without a hit: at the top dose signal change, negative = less light; HEK cells with a luciferase reporter of 2A StopGo recoding; 0.32% of 120,000 active; active means well fitted falling curve with a large enough effect; inconclusive means small, poorly fitted or top-dose-only effect; inactive means no such curve, though single readings can be large or run the other way; note: nearly all actives have a fitted effect of over 55% in size; overnight with compound
# StopGo FLuc: lowers the firefly signal of an FMDV 2A StopGo reporter | HEK cells with a luciferase reporter of 2A StopGo recoding | Potency, µM (highest dose often 57.5 µM), for the others: top-dose signal change, negative = less light | 0.23% of 120,000 active | AID 1745856; active = well fitted falling curve with a large enough effect; inconclusive = small, poorly fitted or top-dose-only effect; inactive = no such curve, though single readings can be large or run the other way; note: nearly all actives have a fitted effect of over 60% in size; overnight with compound
# * marks the source's active call; other numbers are inactive results; ? = inconclusive; [ ] = another dose, or the depositor's remark. % is set by controls: 0 for no effect and ±100 for the full control effect; potency is the fitted concentration of half-maximal effect.
# The first five entries, ahead of the listing:
SMILES,2A Renilla,StopGo FLuc
CCN1CCN(c2nc3c(c(=O)[nH]c(=O)n3C)n2CC(O)COc2ccccc2)CC1 (stereo not given),2.6%,-12.7%
CCc1ccc(OC(C)C(=O)Nc2c(C(=O)c3ccccc3)oc3ccccc23)cc1 (stereo not given),-8.9%,-8.4%
Cc1cccc(N(CC(=O)NCCSc2ccc(Cl)cc2)S(C)(=O)=O)c1C,47.2%[activator],-19.9%
CCCCCCCCCCSc1ccc(C(C)=O)cc1,27.3%,0.0%
COc1ccc(C2c3cc(OC)c(OC)cc3CC(=O)N2c2cccc(C#N)c2)cc1 (stereo not given),1.5%,-1.3%

# Results, from the first entry:
SMILES,2A Renilla,StopGo FLuc
CCN1CCN(c2nc3c(c(=O)[nH]c(=O)n3C)n2CC(O)COc2ccccc2)CC1 (stereo not given),2.6%,-12.7%
CCc1ccc(OC(C)C(=O)Nc2c(C(=O)c3ccccc3)oc3ccccc23)cc1 (stereo not given),-8.9%,-8.4%
Cc1cccc(N(CC(=O)NCCSc2ccc(Cl)cc2)S(C)(=O)=O)c1C,47.2%[activator],-19.9%
CCCCCCCCCCSc1ccc(C(C)=O)cc1,27.3%,0.0%
COc1ccc(C2c3cc(OC)c(OC)cc3CC(=O)N2c2cccc(C#N)c2)cc1 (stereo not given),1.5%,-1.3%
CCN(CC)C(=O)Cn1ncc2c([nH]c3ccccc32)c1=O,-9.3%,7.2%
O=C(Cn1c(-c2cscn2)nc2ccccc21)Nc1ccc(N2CCCC2=O)cc1,-1.5%,29.8%
CCN(Cc1cc2ccccc2[nH]c1=O)S(=O)(=O)c1ccc(C)cc1,-10.2%,-29.8%
Cc1ccc2oc(/N=C(\N)NC(=O)c3ccccc3)nc2c1,0.9%,188.9%[activator]
CC(C)CCN1CCN(C(=O)c2cccc(C#N)c2)CC1,37.1%[activator],0.0%
FC(F)(F)c1cc(Cl)c2nc(-c3cccc(Br)c3)cn2c1,11.0%,196.8%[activator]
CCOc1cc(CNC(=O)CCCn2c(=O)c3cccn3c3cccnc32)cc(OCC)c1OCC,64.1%[activator],31.4%[activator]
Cc1ccc(NC(=O)CN2C(=O)COc3ccc(S(=O)(=O)N4CCCCCC4)cc32)c(C)c1,-0.8%,-7.9%
CC1CCCN(C(=O)C2CCN(C(=O)c3cc4ccccc4n3C)CC2)C1 (stereo not given),-8.1%,-5.8%
CCn1c2ccccc2c2cc(NC(=O)c3ccc[n+]([O-])c3)ccc21,15.5%,0.0%
CCN(CCC(F)(F)F)C(=O)c1ccc2ccccc2n1,12.4%,21.5%
CCOc1ccc(N(CC(=O)NCc2ccc(Cl)cc2Cl)S(C)(=O)=O)cc1,6.9%,177.2%[activator]
O=C(C1CCN(S(=O)(=O)Cc2ccccc2)CC1)N1CCN(c2cccc(C(F)(F)F)c2)CC1,-7.6%,-14.1%
Cc1ccc(/C=N/O)cc1,-0.1%,-6.9%
COc1cccc(C2C(C#N)=C(N)Oc3cc(C)n(CCCN4CCOCC4)c(=O)c32)c1 (stereo not given),8.9%,-1.6%
Cc1ccccc1OCCC(=O)Nc1cccc2cccnc12,15.9%,75.3%[activator]
COc1ccc(OC)c(NC(=O)c2cn(CC(C)C)c(=O)c3cc(OC)c(OC)cc23)c1,46.2%[activator],0.0%
COC(=O)C1(C(=O)OC)C(c2ccccc2)CC(=O)CC1c1ccccc1 (stereo not given),80.2%[activator],6.8%
O=C(Nc1ccc(F)cc1F)c1ccc2c(Cl)c3c(nc2c1)CCC3,17.2%,0.0%
Cc1ccc(C(=O)COC(=O)c2cc3ccccc3[nH]2)c(C)c1,-0.5%,87.0%[activator]
CCOC(=O)c1c(C)[nH]c(C)c1S(=O)(=O)NCC(=O)Nc1ccc(C)cc1C,57.5%[activator],5.0%
O=C(CCc1c[nH]c2ccccc12)N1CCN(CC(=O)N2CCCCCC2)CC1,-4.2%,-4.3%
N#CC[n+]1cccc(-c2ccccc2)c1,10.2%,10.3%
CCOc1ccc(CNCCc2c[nH]c3ccccc23)cc1,-20.6%,-18.1%
O=C(CCN1CCN(CCO)CC1)Nc1ccc(Br)cc1,-5.1%,-10.5%
O=C(CCn1ccccc1=O)Nc1ccccc1F,-10.7%,6.7%
CCN(CCCNC(=O)c1cc(Nc2ccc(OC)cc2)nc2ccccc12)c1cccc(C)c1,-1.1%,1.5%
COc1cc(OC)cc(C(=O)Nc2ccc3c(c2)N(C2CCCC2)C(=O)c2ccccc2S3)c1,?,?
CC(=O)Nc1ccc2c(c1)nc(CCn1ccnc1C)n2C,16.0%,4.9%
O=C(CN1C(=O)CC(c2ccco2)Sc2ccccc21)Nc1cccc(C(F)(F)F)c1 (stereo not given),22.4%,4.0%
CCOC(=O)c1[nH]c(C)c(CCC(=O)Nc2ccc(C(C)=O)cc2)c1C,-8.0%,-6.3%
CCOC(=O)N1CCN(C(=O)c2cnn3c(C(F)(F)F)cc(-c4cccs4)nc23)CC1,20.8%,40.1%[activator]
Cc1nc2ccc(S(=O)(=O)N(C)CC(=O)Nc3ccc(C(C)C)cc3)cc2s1,90.5%[activator],0.0%
Cn1c(=O)c2c(ncn2CC(=O)Nc2ccccc2Cl)n(C)c1=O,0.0%,0.0%
COc1ccc(-c2noc(Cn3c(=O)c4ccccc4n(CC(=O)Nc4cccc(OC)c4)c3=O)n2)cc1,-5.0%,-19.7%
CCCCCn1nc(C(=O)N2CCCC(C(N)=O)C2)c2ccccc2c1=O (stereo not given),12.0%,5.8%
O=C(COc1ccccc1)N(Cc1ccc(-c2ccc(Cl)cc2)o1)C1CCS(=O)(=O)C1 (stereo not given),-11.4%,-9.9%
O=C(CCn1nc(-c2ccccc2)c2ccccc2c1=O)N1CCOCC1,4.8%,3.3%
Cc1ccnc(NC(=O)CCc2ncc(-c3ccccc3F)o2)c1,10.5%,218.2%[activator]
Cn1cc(C(=O)NC2CCN(S(C)(=O)=O)CC2)c2ccccc21,-12.2%,-5.6%
CSC(C)C(=O)Nc1ccc(Cl)c(Cl)c1 (stereo not given),20.6%,28.3%
COC(=O)c1ccc(CNC(=O)C2CC=CCC2)cc1 (stereo not given),0.6%,106.8%[activator]
Cc1cncn1CCc1nc2c3ccccc3nc(SCC(=O)Nc3ccc(F)cc3)n2n1,-11.0%,-20.3%
CCCCc1nc2sc(C(=O)OCC)c(N)c2c2c1COC(C)(C)C2,18.3%,1.2%
Cc1ccc(NS(=O)(=O)c2cc([N+](=O)[O-])ccc2NN)c(C)c1,166.9%[activator],0.0%
CCCCCNC(=O)c1ccc2c(=O)n(CCc3ccccc3)c(=O)[nH]c2c1,-1.7%,-1.0%
CCc1ccccc1Nc1nn2c(=O)c3ccc(C(=O)NC(C)c4ccccc4)cc3nc2s1 (stereo not given),?,11.2µM*
CC(CNC(=O)Cn1nc(C(N)=O)c2ccccc2c1=O)(c1ccccc1)c1ccccc1,-8.4%,-17.7%
COc1ccccc1-n1c(SCC(=O)NC(C)C)nc2ccsc2c1=O,-8.1%,2.8%
N#CCCN(CCC#N)C(=O)CSc1ncc(-c2ccc(F)cc2)o1,-0.4%,0.0%
CCc1ccc2c(COC(=O)c3cc(S(=O)(=O)N(C)C)ccc3NCCO)cc(=O)oc2c1,17.1%,0.4%
COc1ccc(N2Cc3cccc(C(=O)NCc4ccc(Cl)cc4)c3C2=O)cc1,58.1%[activator],7.0%
COc1ccccc1OCC(=O)Nc1cc(-c2ccccc2)no1,-12.9%,116.8%[activator]
CCn1c(SCC(=O)Nc2ccccc2)nc2c([nH]c3ccccc32)c1=O,-1.6%,12.6%
COc1cccc(C(CC(=O)Nc2cccc(-c3ccno3)c2)n2cccc2)c1 (stereo not given),-19.7%,-17.0%

# Following part.
SMILES,2A Renilla,StopGo FLuc
Cc1nc(C(C)(C)C)nc2sc(C(=O)N3CCCCC3)c(C)c12,28.2%,17.5%
Cc1ccc(-n2cc(-c3ccccc3)c3c(NC4CCCC4)ncnc32)cc1,-10.7%,-19.1%
CN(C)CCOC(=O)CCc1cc(C(C)(C)C)c(O)c(C(C)(C)C)c1,-6.2%,-11.5%
Cc1c(CCNC(=O)C(C)(C)C)sc2nc(-c3ccc(F)cc3)nn12,-10.8%,0.0%
CC1=C(C(=O)OC2CCCCCC2)C(c2ccc(Cl)cc2Cl)CC(=O)N1 (stereo not given),-4.9%,-14.7%
CCOc1ccc(/C=N/OCc2ccc(F)cc2Cl)cc1OC,4.2%,0.0%
COc1ccccc1OCC(=O)NCCS(=O)(=O)N1CCN(c2ccccc2OC)CC1,-6.8%,-16.7%
COc1cc(OC)c(C(=O)OCC(=O)Nc2c(C(C)C)cccc2C(C)C)cc1OC,2.1%,-6.2%
CC(C)NC(=O)CCn1c(SCc2c(F)cccc2Cl)nc2c(sc3ccccc32)c1=O,-2.1%,-4.9%
COc1ccccc1NC(=O)C1CCCN(c2ncnc3onc(-c4ccc(F)cc4)c23)C1 (stereo not given),-10.1%,-22.3%
CCCn1c(=O)c2sc(N3CCCC3)nc2n(CC(=O)Nc2cc(C)ccc2OC)c1=O,1.6%,-3.9%
O=C(CSc1nc2ccccc2o1)OCC(=O)c1ccccc1,-4.1%,26.3%
COc1ccc(NC(=O)Cn2cnc3c(nc4n3CCCCC4)c2=O)cc1Cl,-9.7%,-12.5%
Cc1ccc(S(=O)(=O)Nc2ccc3[nH]c(=O)sc3c2)cc1C,-8.9%,-13.0%
Cc1ccccc1-n1c(SCc2nc3ccccc3o2)nnc1N1CCOCC1,-4.3%,-1.7%
COC(=O)[C@]12C[C@H](CC(=O)NCc3ccc(OC)c(OC)c3)C(=O)N(CCC3=CCCCC3)C1=C[C@H](C(C)C)O[C@@H]2C1CC1,5.0%,3.1%
CCn1cc2nc(SCc3cc(C)ccc3C)n(CCc3ccccc3)c(=O)c2n1,-6.9%,10.1%
Cn1cc(C(=O)Nc2ccncc2)c2ccccc21,-7.4%,22.5%
COc1ccc(NC(=O)C2CCCN(S(=O)(=O)c3cccc4nonc34)C2)cc1Cl (stereo not given),-0.6%,-5.7%
CCCc1c(C)nc(Nc2nc(C)c3ccc(C)cc3n2)[nH]c1=O,5.1%,9.1%
CC(=O)NNC(=S)Nc1ccc(Cl)cc1,2.1%,0.0%
COCc1nn2c(c1-c1ccccc1)NC(=O)CC2C(=O)Nc1ccc(F)c(F)c1 (stereo not given),-7.0%,0.7%
C/C(=C\c1ccccc1)C1Nc2ccc3ccccc3c2C2=C1C(=O)CC(C)(C)C2 (stereo not given),204.1%[activator],0.0%
CSc1cccc(NC(=O)CN2CCN(Cc3ccccc3C)S2(=O)=O)c1,-4.4%,-20.6%
COc1ccc(/C=C2/N=C(c3ccc(Cl)cc3Cl)NC2=O)cc1,6.0%,26.9%
Cc1ccc(CNc2oc(Cc3ccccc3)nc2C#N)cc1,?,0.0%
Cc1nc(-c2c[nH]c3ccccc23)c(C)s1,?,10.0%
O=C(Nc1cc(-c2nc3cc(Cl)ccc3o2)ccc1Cl)c1ccco1,-6.6%,256.8%[activator]
CC(NC(=O)COC(=O)c1cc(=O)c2ccccc2o1)c1ccccc1 (stereo not given),1.6%,-3.3%
CC(=O)N1CCN(CC(=O)Nc2c(C#N)c(C)c(C)n2C2CCCCC2)CC1,-0.6%,-1.5%
CN(Cc1ccccc1)C(=O)COc1ccc2c(=O)c(-c3ccc(Cl)cc3)coc2c1,8.5%,35.1%[activator]
CC(C)NC(=O)Cn1c(=O)nc(-c2ccccc2)c2ccccc21,-8.5%,2.0%
CC1CCN(c2nc(SCC(=O)N3CCOCC3)c(C#N)c3c2CCCC3)CC1,?,?
COc1ccc2c(c1)c1c(c(=O)n(-c3ccccc3)c(=O)n1CC(=O)Nc1ccc(F)cc1)n2C,-10.6%,-14.9%
Cc1ccc(NC(=O)c2ccc(NC(=O)N3CCSc4ncccc43)cc2)c(Cl)c1,20.0%,?
Cc1cccc(N(C)S(=O)(=O)c2nnc(NC(=O)C3CCCCC3)s2)c1,-9.0%,-15.7%
COc1cc(OC)c(NC(=O)c2cnn(-c3cccc(Cl)c3C)c2C2CCN(C(=O)OC(C)(C)C)CC2)cc1Cl,-11.9%,-20.6%
Cn1c(C=C(C#N)C#N)ccc1-c1ccc(Cl)cc1,?,?
COc1ccc(C=O)cc1I,-7.0%,4.9%
NNc1c(F)c(F)c(Br)c(F)c1F,-3.6%[1.06 µM],0.0%
COc1cc(OC)c(NC(=O)Nc2ccc3c(c2)N(C)C(=O)c2ccccc2S3)cc1Cl,-3.7%,-9.3%
CC(C)=CC(=O)Nc1ccc(OC2CCCC2)cc1,9.9%,0.0%
COc1ccc(S(=O)(=O)NC2CCN(C(=O)Nc3cc(Cl)ccc3OC)CC2)cc1,15.5%,-13.6%
COc1cccc2c(Nc3ccccc3O)cc(C)nc12,-15.8%,-2.4%
CCc1ccc(-n2c(-c3ccccc3)c(C)n3c4c(=O)n(C)c(=O)n(C)c4nc23)cc1,-5.4%,1.0%
CC(=O)Nc1ccccc1SC(F)(F)F,8.7%,5.7%
O=[N+]([O-])c1c(Nc2ccccc2Cl)ccc2nonc12,-18.9%,9.7%
Cc1cccc(OCc2nnc3sc(-c4ccccc4)nn23)c1,19.4%,0.0%
CCN(C(=O)CSc1nnc(-c2ccc(Cl)cc2)o1)c1ccccc1,24.9%,-8.8%
COc1ccc(C(=O)N[C@@H]2C(=O)Nc3c(c(C)nn3C)[C@H]2c2ccc(C)cc2)cc1OC,0.6%,-6.1%
COc1cccc(N2CCN(C(=O)c3cc4c(=O)n(Cc5cccs5)ccc4nc3C)CC2)c1,7.2%,2.8%
O=[N+]([O-])c1ccc(/C=N/Nc2ccc(S(=O)(=O)Nc3ccccc3)cc2[N+](=O)[O-])o1,0.0%,22.0%

# Two compounds picked at random from those above:
SMILES,2A Renilla,StopGo FLuc
O=[N+]([O-])c1ccc(/C=N/Nc2ccc(S(=O)(=O)Nc3ccccc3)cc2[N+](=O)[O-])o1,0.0%,22.0%
COc1ccc(C(=O)N[C@@H]2C(=O)Nc3c(c(C)nn3C)[C@H]2c2ccc(C)cc2)cc1OC,0.6%,-6.1%
